LANA-nucl inh: inhibitors of KSHV LANA binding to nucleosomes. FITC-LANA1-23 / chicken nucleosome fluorescence polarization; active compounds read low. z-score (concentration not given with the values). 51,000 compounds, 0.3% hits. AID 720717;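 active = both repeat wells score below -2 in polarization z-score versus plate sample wells, excluding overly bright wells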;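 also: 100 nL library stock added to about 30 µL; numbers are from one replicate; some results filed as inactive read as strong as hits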
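Assay system: purified chicken nucleosomes with FITC-labelled LANA N-terminal peptide (1-23) / Probe or stimulus: 50 nM FITC-LANA1-23 probe / Compound dosing: pin-transferred compound, 100 nL / Times: compound with peptide–nucleosome mix 10–45 min at room temperature / Technique: fluorescence polarization, 480 nm excitation, 535 nm parallel and perpendicular emission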
BasE inh: BasE siderophore biosynthesis inhibition; inhibition, % (concentration not given with the values); purified BasE, fluorescence polarization binding displacement; 84,000 compounds, 0.1% hits;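 active = both replicates above 25% with normal brightness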;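 also: 0% = negative plate control signal and 100% = positive plate control signal; stock transfer was 100 nL into about 30 µL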
* = called active by the depositor; nt = no result given; & = joins results of further samples.

[1] CN(C)CCCSc1ccccc1NC(=O)/C=C/c1ccccc1
[2] CC(C)(C)NCC(O)COc1cccc2c1CC(O)C(O)C2 (stereo not given)
[3] C[C@@H]1C[C@H]2[C@@H]3CCC4=CC(=O)C=C[C@]4(C)[C@@]3(Cl)[C@@H](O)C[C@]2(C)[C@@]1(OC(=O)c1ccco1)C(=O)CCl
[4] COc1cc(N)c(Cl)cc1C(=O)N[C@@H]1CCN(CCCOc2ccc(F)cc2)C[C@@H]1OC
[5] Cc1cc(=O)oc2cc(O)ccc12
[6] CCCCC(=O)O[C@]1(C(=O)CO)[C@@H](C)CC2C3CCC4=CC(=O)C=C[C@]4(C)[C@@]3(F)C(O)C[C@@]21C (stereo not given in full)
entry no.	1	2	3	4	5	6
LANA-nucl inh	-0.32&0.2	0.74	-0.73	0.44	-0.1	0.66
BasE inh	nt	2.2	0.2	nt	1.4	-1.7

[7] CC1(C)O[C@@H]2C[C@H]3[C@@H]4C[C@H](F)C5=CC(=O)C=C[C@]5(C)[C@@]4(F)[C@@H](O)C[C@]3(C)[C@]2(C(=O)CO)O1
[8] CCCCOc1cc(C(=O)OCCN(CC)CC)ccc1N
[9] COC(=O)N/N=C/c1c[n+]([O-])c2ccccc2[n+]1[O-]
[10] CC1O[C@@H](O[C@@H]2C(CO)O[C@@H](OCC3O[C@@H](OC(=O)C45CC[C@@H](C)[C@H](C)[C@H]4C4=CC[C@@H]6[C@@]7(C)C[C@@H](O)[C@H](O)[C@@](C)(CO)C7CC[C@@]6(C)[C@]4(C)CC5)C(O)[C@H](O)[C@@H]3O)C(O)[C@@H]2O)C(O)[C@@H](O)[C@H]1O (stereo not given in full)
[11] CCn1cc(C(=O)O)c(=O)c2cc(F)c(N3CCNC(C)C3)c(F)c21 (stereo not given)
[12] COc1cc(C2Oc3cc(C4Oc5cc(O)cc(O)c5C(=O)C4O)ccc3OC2CO)ccc1O (stereo not given)
entry no.	7	8	9	10	11	12
LANA-nucl inh	-0.057	-0.12	1.2&0.64&0.57	0.4	0.1&0.12&-0.96&-0.11	0.58
BasE inh	nt	-3.1	3.0	-0.7	1.5&-0.1	-1.6

[13] CCCCCCCCCCCCCCC[C@@H](O)[C@@H](N)CO
[14] CC[C@]12CCCN3CCc4c(n(c5ccccc45)[C@](O)(C(=O)OC)C1)[C@@H]32
[15] CC(C)(C)NCC(O)COc1cccc2c1C[C@H](O)[C@H](O)C2 (stereo not given in full)
[16] COC(=O)C1=C(C)NC(C)=C(C(=O)OCCN2CCN(C(c3ccccc3)c3ccccc3)CC2)C1c1cccc([N+](=O)[O-])c1 (stereo not given)
[17] CCCCN(CCCC)CCCOC(=O)c1ccc(N)cc1
[18] C=CCN1C[C@H](C(=O)N(CCCN(C)C)C(=O)NCC)C[C@@H]2c3cccc4[nH]cc(c34)C[C@H]21
entry no.	13	14	15	16	17	18
LANA-nucl inh	0.64	-0.46&0.46	1.2&-1&0.6	-0.018	0.47&-0.54&-0.79	1.8
BasE inh	-3.0	-0.7&-0.7	1.4&-0.3	nt	1.0&-2.3	nt

[19] O=C1c2c(O)ccc(O)c2C(=O)c2c(NCCNCCO)ccc(NCCNCCO)c21
[20] OCC1CN(Cc2ccccc2)C(c2ccccc2)O1 (stereo not given)
[21] O=C(O)Cc1sc(-c2ccccc2)nc1-c1ccc(Cl)cc1
[22] CC(=O)OCC(=O)[C@@]1(O)CC[C@H]2[C@@H]3CCC4=CC(=O)C=C[C@]4(C)[C@@]3(F)[C@@H](O)C[C@@]21C
[23] c1ccc(-n2cnnn2)cc1
[24] CCn1c(C(=O)N2CCCC(C(=O)N3CCc4ccccc4C3)C2)cc2sccc21 (stereo not given)
entry no.	19	20	21	22	23	24
LANA-nucl inh	-9.1*	0.2	-0.6	2.3	-0.92	0.17
BasE inh	0.9&0.2	nt	nt	-4.2	-1.5	-1.0

[25] CN(C)CC/C=C1/c2ccccc2COc2ccc(CC(=O)O)cc21
[26] Cc1ccccc1OCC(O)CO (stereo not given)
[27] Cc1ccc(Nc2nc(N)nc(CN3CCC(C(N)=O)CC3)n2)cc1
[28] COc1ccc(C(=O)c2ccccc2)c(O)c1
[29] Cc1scc2c1N(C(=O)CN1CCN(C)CC1)c1ccccc1NC2=O
[30] COCCNC(=O)c1ccc2c(c1)nc(C)n2-c1ccc(Br)cc1
entry no.	25	26	27	28	29	30
LANA-nucl inh	0.21&0.41	-0.27&-0.53&0.7	0.53	-0.27&0.29&0.13	0.7&0.055&-0.34	-0.34
BasE inh	nt	0.3&2.5	-1.6	0.4&1.5	-1.8&0.4	-5.9

[31] CCCOc1ccc2nc(NC(=O)OC)[nH]c2c1
[32] CCN(CC)CC1CCCCN1CC(=O)N1c2ccccc2C(=O)Nc2cccnc21 (stereo not given)
[33] N=c1nc(N2CCCCC2)cc(N)n1O
[34] COc1ccc(-c2oc3c(CC=C(C)C)c(O[C@@H]4O[C@H](CO)[C@@H](O)[C@H](O)[C@H]4O)cc(O)c3c(=O)c2O[C@@H]2O[C@@H](C)[C@H](O)[C@@H](O)[C@H]2O)cc1
[35] CN[C@@H]1[C@H](O)[C@H](NC)[C@H]2O[C@@]3(O)C(=O)C[C@@H](C)O[C@H]3O[C@@H]2[C@H]1O
[36] CCCOc1ccc(C(=O)OCCN(CC)CC)cc1N
entry no.	31	32	33	34	35	36
LANA-nucl inh	-0.92&1.3&1	-0.7	0.58&-0.22&-0.55&-0.45&-0.77	-0.11	0.26&0.27&-0.79&-0.66	1.2&-0.63
BasE inh	-4.1	nt	-1.4&-1.1&-4.5	nt	1.4&-2.7	-1.9

[37] CCn1ccc(C(=O)Nc2ccccc2C(=O)OC)n1
[38] CC(Cc1cccc(C(F)(F)F)c1)NCCOC(=O)c1ccccc1 (stereo not given)
[39] CC[C@@H]1OC(=O)C[C@@H](O)[C@H](C)[C@@H](O[C@@H]2O[C@H](C)[C@@H](O)[C@H](N(C)C)[C@H]2O)[C@@H](CCN2C[C@H](C)C[C@H](C)C2)C[C@@H](C)C(=O)/C=C/C(C)=C\[C@@H]1CO[C@@H]1O[C@H](C)[C@@H](O)[C@@H](OC)[C@H]1OC
[40] O=C(CN1C(=O)c2ccccc2C1=O)Nc1nnc(-c2ccc3c(c2)OCCO3)o1
[41] COC(=O)c1ccccc1O
[42] CCN(CCCCOC(=O)c1ccc(OC)c(OC)c1)C(C)Cc1ccc(OC)cc1 (stereo not given)
entry no.	37	38	39	40	41	42
LANA-nucl inh	0.86	-0.44&0.59	0.13	0.39	-0.22	-0.022&-0.24&0.75
BasE inh	-2.4	-0.6&-3.1	nt	1.1	nt	-2.7&2.0

[43] CN(CC1COc2ccccc2O1)c1ccc(S(=O)(=O)N2CCOCC2)cn1 (stereo not given)
[44] COc1ccc(-c2cc(C(F)F)nn2-c2ccc(S(N)(=O)=O)cc2)cc1F
[45] O=C(O)c1cc(=O)c2ccccc2o1
[46] CN(C)c1ccc2nc3ccc(=[N+](C)C)cc-3sc2c1
[47] CC(C)NNC(=O)c1ccncc1
[48] CCc1cccc(CC)c1NC(=O)CN(CC(=O)O)CC(=O)O
[49] CC(C)n1c(SCC(=O)Nc2ccccc2)nc2ccccc2c1=O
[50] Nc1c2ccccc2nc2ccccc12
entry no.	43	44	45	46	47	48	49	50
LANA-nucl inh	nt	0.3	1.1	-2.4*	-0.35&-0.013&0.52	0.4	nt	-0.2&-0.86
BasE inh	-1.0	nt	-2.5	nt	0.2&-1.1	0.6	-2.0	-0.6

An excerpt from above in order of count of non-hydrogen atoms, descending.
[39] CC[C@@H]1OC(=O)C[C@@H](O)[C@H](C)[C@@H](O[C@@H]2O[C@H](C)[C@@H](O)[C@H](N(C)C)[C@H]2O)[C@@H](CCN2C[C@H](C)C[C@H](C)C2)C[C@@H](C)C(=O)/C=C/C(C)=C\[C@@H]1CO[C@@H]1O[C@H](C)[C@@H](O)[C@@H](OC)[C@H]1OC
[42] CCN(CCCCOC(=O)c1ccc(OC)c(OC)c1)C(C)Cc1ccc(OC)cc1 (stereo not given)
[40] O=C(CN1C(=O)c2ccccc2C1=O)Nc1nnc(-c2ccc3c(c2)OCCO3)o1
[43] CN(CC1COc2ccccc2O1)c1ccc(S(=O)(=O)N2CCOCC2)cn1 (stereo not given)
[44] COc1ccc(-c2cc(C(F)F)nn2-c2ccc(S(N)(=O)=O)cc2)cc1F
[49] CC(C)n1c(SCC(=O)Nc2ccccc2)nc2ccccc2c1=O
[48] CCc1cccc(CC)c1NC(=O)CN(CC(=O)O)CC(=O)O
[36] CCCOc1ccc(C(=O)OCCN(CC)CC)cc1N
entry no.	39	42	40	43	44	49	48	36
LANA-nucl inh	0.13	-0.022&-0.24&0.75	0.39	nt	0.3	nt	0.4	1.2&-0.63
BasE inh	nt	-2.7&2.0	1.1	-1.0	nt	-2.0	0.6	-1.9

[46] CN(C)c1ccc2nc3ccc(=[N+](C)C)cc-3sc2c1
[50] Nc1c2ccccc2nc2ccccc12
[47] CC(C)NNC(=O)c1ccncc1
[41] COC(=O)c1ccccc1O
entry no.	46	50	47	41
LANA-nucl inh	-2.4*	-0.2&-0.86	-0.35&-0.013&0.52	-0.22
BasE inh	nt	-0.6	0.2&-1.1	nt

Whole records as entered above. Screens in order: LANA-nucl inh	BasE inh
Shown for CCN(CC)CC1CCCCN1CC(=O)N1c2ccccc2C(=O)Nc2cccnc21 (stereo not given) → -0.7	nt
Shown for Cc1cc(=O)oc2cc(O)ccc12 → -0.1	1.4

Screening data deposited in PubChem by ICCB-Longwood Screening Facility, Harvard Medical School.

A portion of the library; the hit share may differ from the screen's.
